StopGo FLuc: Primary qHTS Assay for Foot and Mouth Disease Virus Antivirals against NCGC Sytravon and CBC Compound Libraries: Firefly Luciferase Signal; HEK cells with a luciferase reporter of 2A StopGo recoding; Potency, µM (doses to about 57.5 µM), inactives show top-dose signal change, negative = less light; actives 0.23% (n = 120,000); active = well fitted falling curve with a large enough effect; inconclusive = small, poorly fitted or top-dose-only effect; inactive = no such curve, though single readings can be large or run the other way; note: nearly all actives have a fitted effect of over 60% in size; overnight with compound
StopGo RLuc: Primary qHTS Assay for Foot and Mouth Disease Virus Antivirals against NCGC Sytravon and CBC Compound Libraries: Renilla Luciferase Signal; actives 0.32% (n = 120,000); Potency, µM (series often up to 57.5 µM), for the others: at the highest dose signal change, negative = less light; HEK cells with a luciferase reporter of 2A StopGo recoding; AID 1745857, 2022; active means well fitted falling curve with a large enough effect; inconclusive means small, poorly fitted or top-dose-only effect; inactive means no such curve, though single readings can be large or run the other way; note: nearly all actives have a fitted effect of over 55% in size; overnight with compound
* marks the source's active call; other numbers are inactive results; ? = inconclusive; & = joins results of further samples; [ ] = another dose, or the depositor's remark. % is set by controls: 0 for no effect and ±100 for the full control effect; potency is the fitted concentration of half-maximal effect.

The line under a structure holds: StopGo FLuc	StopGo RLuc
1	Cc1cc(C)cc(OCC(=O)Nc2nc3c(s2)CC(C(C)(C)C)CC3)c1 (stereo not given)
  8%	-6%
2	CCCCCCCCC(=O)Nc1cccc(C)c1C
  -1%	-3%
3	COc1ccc(CCNC(=O)Cc2c(C)c3cc4c(C(C)(C)C)coc4c(C)c3oc2=O)cc1
  -6%	-6%
4	CC(C)(C)c1ccc(S(=O)(=O)N2CCC(c3ccncc3)CC2)cc1
  ?	-9%
5	COC(=O)C1CN(Cc2cn(CCC3OCCO3)nn2)CCS(=O)(=O)N1Cc1ccc(OC)cc1 (stereo not given)
  0%	1%
6	COc1ccc(-c2nc(C#N)c(N3CCC(Cc4ccccc4)CC3)o2)cc1OC
  2%	-3%
7	Cc1ccc(Cn2c(C(=O)O)c(CNCCc3ccco3)c3ccc(C)cc32)cc1
  -25%	23%
8	O=S(=O)(c1ccc(-c2cc(C(F)(F)F)on2)s1)N1CCN(c2ccc(F)cc2)CC1
  12%	-17%
9	CC(C)c1ccc(-n2nnnc2C2(Nc3ccccc3)CCCCC2)cc1
  12%	297%[activator]
10	NC(=O)NC(=O)CSc1nc(-c2ccco2)nc2ccccc12
  27%	-3%
11	O=C(C(Sc1nnc(-c2ccncc2)n1-c1ccc(Cl)cc1)c1ccccc1)N1CCCC1 (stereo not given)
  -2%	-1%
12	COC(=O)c1cc(S(=O)(=O)NCC2CCN(Cc3ccccc3F)CC2)c[nH]1
  -4%&-16%	-6%&-10%
13	COc1ccccc1-c1cc2nc(C)c(CCC(=O)NCCc3cccc(C)c3)c(C)n2n1
  ?	-11%
14	Cc1cccc(N2CCN(S(=O)(=O)c3csc(C(N)=O)c3)CC2)c1C
  13µM*	8.9µM*
15	CCNC(=O)NC(=O)COc1ccc(C(=O)c2ccc(F)cc2)cc1
  3%	-9%
16	CCOc1ccc(CCNC(=O)CCCc2nnc3n(CCCOC)c(=O)c4sccc4n23)cc1
  -12%	5%
17	Cc1ccc(N2CC(c3nc(-c4cccs4)no3)CC2=O)cc1C (stereo not given)
  23%	38%[activator]
18	CCOC(=O)Nc1cccc(N2CCn3c(nc4ccccc43)C2)c1
  114%[activator]	-4%
19	CCOC(=O)c1ccc(NC(=O)CSc2nc(C)c(Cc3ccccc3)c(=O)[nH]2)cc1
  11%	-14%
20	CCC12CN(C(C)=O)CC(C)(CN(C(C)=O)C1)C2=O
  0%	15%
21	CCN1CCOC(=O)C1CC(=O)Nc1cc(C)ccc1OC (stereo not given)
  58%[activator]	41%[activator]
22	COc1ccc(NC(C)=O)cc1NC(=O)COC(=O)c1ccc(C)s1
  0%	-9%
23	Cc1ccc(NC(=O)COC(=O)C2(c3ccccc3F)CCCC2)c([N+](=O)[O-])c1
  2%	-5%
24	CCOC(=O)c1c(C)oc2ncnc(N3CCN(c4ccccc4)CC3)c12
  ?	?
25	CCOc1ccc(OCCOC(=O)CCC(=O)c2ccc(F)cc2)cc1
  0%	7%
26	c1ccc(CNc2nc(Nc3cccc4ccccc34)nc3ccccc23)cc1
  -29%	-27%
27	FC(F)(F)c1cccc(N2CCN(c3nc4ccccc4n4cnnc34)CC2)c1
  32%[activator]	2%
28	CCCOc1ccc(C(=O)Nc2ccc3oc(-c4ccncc4)nc3c2)cc1
  13%&0%	7%&6%
29	O=C(NCc1ccc(-n2cccn2)cc1)c1cc(Br)ccc1Cl
  5%	5%
30	N#Cc1nc(-c2ccco2)oc1N1CCN(CC(=O)Nc2cccc(Br)c2)CC1
  -4%	10%
31	COc1ccc(CNC(=O)Cn2c(-c3ccccc3)cc(C(C)=O)c2C)cc1OC
  0%	-9%
32	COc1ccc(C2=C(O)C(=O)N(Cc3ccc(Cl)cc3)C2c2ccccc2F)cc1 (stereo not given)
  2%	56%[activator]
33	Cc1ccc(Sc2ccc(N3CCCC(C(=O)Nc4ccc(Br)cc4)C3)nn2)cc1 (stereo not given)
  -5%	-3%
34	Cc1ccc2nc(Cl)c3cc(C(=O)NC4CCCCCC4)sc3c2c1
  0%	-16%
35	OCCCNC(=S)NC1CCCCC1
  8%	0%
36	CCc1c(C)sc(NC(C)=O)c1C#N
  15%	28%
37	Fc1cccc(Cl)c1CN1CCc2ccccc2C1
  42%[activator]	-20%
38	COc1cccc2c(C)nc(NC3=NCN(CCO)CN3)nc12
  37%[activator]	30%
39	Cc1ccc(NC(=O)CN2C(=O)CCSc3ccc(S(=O)(=O)N4CCCC4)cc32)cc1C
  -11%	-7%
40	CC(C)(C)c1nc2cc(NC(=O)Cc3ccccc3[N+](=O)[O-])ccc2o1
  0%	-3%
41	CC(C#N)(NC(=O)CSc1ccc(F)cc1)C1CC1 (stereo not given)
  7%	-2%
42	COc1cccc(CNC(=O)C(=O)c2c[nH]c3ccccc23)c1
  0%	65%[activator]
43	Cc1ccc(CNC(=S)NCCN(C)C)cc1
  0%	-12%
44	Fc1ccc(N/N=C/c2ccc(F)c(F)c2)c(F)c1
  223%[activator]	25%
45	Cc1ccc(-c2nnc(Nc3ccc(O)cc3)c3ccccc23)cc1S(=O)(=O)NC(C)(C)CO
  92%[activator]	240%[activator]
46	COC(=O)c1[nH]c2ccc(F)cc2c1C=O
  11%	-4%
47	CCCc1ccc(OCC(=O)Nc2sc3c(c2C(=O)OCC)CCC(C(C)(C)C)C3)cc1 (stereo not given)
  -7%	-2%
48	COC(=O)c1ccc(C(=O)Oc2ccc3c(c2)CCC3)cc1
  -5%	5%
49	COc1ccc(C(=O)N[C@H]2C[C@@H]3CC[C@H]2C3)cc1OC
  -7%	20%
50	CC(C)CNC(=O)CSc1nnc(-c2nn(Cc3ccccc3)c(=O)c3ccccc23)o1
  -2%	-5%
51	Cc1ccc(-c2nc(CS(=O)CC(=O)N3CCN(c4cccc(Cl)c4)CC3)c(C)o2)cc1 (stereo not given)
  0%	-23%
52	Cc1ccc(C)c(NC(=O)C2CCN(S(=O)(=O)c3cccs3)CC2)c1
  -3%	-5%
53	O=C(/C=C/Nc1ccc(Oc2ccccc2)cc1)c1ccc(F)cc1
  129%[activator]	37%[activator]
54	COCCCNCc1ccco1
  -4%	-2%
55	CC(=O)Nc1nonc1-c1nnc(SCC(=O)Nc2ccccc2)n1-c1ccccc1
  -7%	18%
56	CCCOc1ccc(NC(=O)c2cccc(C)c2)c2cccnc12
  -7%	-16%
57	CCCCNC(=O)CCCn1c(=O)c2ccccc2n(Cc2c(C)cc(C)cc2C)c1=O
  -11%	-5%
58	O=C(O)c1ccc(COc2cc(Cl)ccc2Cl)s1
  140%[activator]	5%
59	NCc1ccc(CN2CCCCC2)cc1
  -16%	6%
60	N#Cc1cc2c(nc1SCC(=O)NC1CCCCC1)CCCC2
  47%[activator]	2%

Compound profiles, from the list above. Order of screens: StopGo FLuc | StopGo RLuc
Shown for `Cc1ccc(Sc2ccc(N3CCCC(C(=O)Nc4ccc(Br)cc4)C3)nn2)cc1` (stereo not given) : -5% | -3%
Shown for `NCc1ccc(CN2CCCCC2)cc1` : -16% | 6%

Further compounds follow.
The line under a structure holds: StopGo FLuc	StopGo RLuc
61	Cc1oc2ncnc(N3CCOCC3)c2c1C(=O)NCC1CCN(Cc2cccc(F)c2)CC1
  -12%	-11%
62	CCCOc1ccc(C(=O)N(Cc2ccco2)Cc2ccco2)cc1
  5%	71%[activator]
63	Cc1cc(O)c(C(c2ccccc2Cl)N2CCN(c3ccccc3)CC2)c(=O)n1Cc1ccco1 (stereo not given)
  -31%	13%
64	Cc1ccc(-n2c(SCC(=O)Nc3ccc4c(c3)OCO4)nc3c([nH]c4ccccc43)c2=O)cc1
  25%	8%
65	COCCN1C(=O)C(=O)/C(=C(/O)c2ccc(OCC(C)C)cc2C)C1c1cccnc1 (stereo not given)
  -1%	-7%
66	CCCCCn1cc2c(c1-c1ccccc1Br)c(=O)n(C)c(=O)n2C
  -11%	-19%
67	CSc1ccc(/C=C2\CCc3ccccc3C2=O)cc1
  0%	28%
68	COc1ccc(S(=O)(=O)c2c(O)c3ccc(C(=O)NCc4ccc(F)cc4)cc3[nH]c2=O)cc1
  0%&-14%	22%&-14%
69	COc1ccc(Cn2ccnc2SCC(=O)NC2CCCC2)cc1
  -12%	-16%
70	COc1ccc(NC(=O)c2ccco2)cc1NC(=O)COc1ccccc1
  36%[activator]	18%
71	CCC(=O)N1CCc2cc(S(=O)(=O)NC(C(=O)NCCc3cccc(C)c3)C(C)C)ccc21 (stereo not given)
  -8%	6%
72	COCCCNC(=O)C1CCN(C(=O)c2ccc(-n3ccc4ccccc43)s2)CC1
  0%	6%
73	CC(Sc1nc2cc(S(=O)(=O)N3CCCCC3)ccc2o1)C(=O)N1CCc2ccccc21 (stereo not given)
  -4%	11%
74	CC(NC(=O)c1ccc2c(c1)NC(=O)CS2)C1CC1 (stereo not given)
  14%	6%
75	O=C(O)c1cccc(OCC2CCCO2)c1 (stereo not given)
  0%	1%
76	N#Cc1nc(-c2ccc([N+](=O)[O-])cc2)oc1NC1CC1
  15%	1%
77	Cc1ccc(NC(=O)Nc2csc3c2CCCC3)c(C)c1
  -10%	23%
78	Cc1ccc(Cl)cc1NC(=O)c1sc2nc(-c3ccccc3)cn2c1C
  14%	2%
79	CC(C)OCCCNC(=O)C(=O)Nc1c2c(nn1-c1ccccc1)CS(=O)(=O)C2
  -10%	-9%
80	C1CCC(CC2CCCN2)CC1 (stereo not given)
  -4%	-5%
81	Cc1ccc(C)c(C(=O)Nc2ccc(-c3nccs3)cc2)c1
  181%[activator]	5%
82	CCOC(=O)CSc1nc(-c2ccc(Cl)cc2)cc(C(F)(F)F)c1C#N
  -21%	0%
83	Cn1c(=O)n(C)c2cc(NS(=O)(=O)c3ccc(Br)cc3)c(NCc3ccccc3)cc21
  243%[activator]	452%[activator]
84	Fc1ccc(-c2nc(COc3ccccc3Br)co2)cc1
  26%	22%
85	CON(C)C(=O)c1ccc2noc(-c3ccccc3)c2c1
  0%	22%
86	COc1c(Cl)cc(/C=C(/C#N)c2cccc(F)c2)cc1Cl
  28%	6%
87	CC(=O)Oc1ccc(C(c2ccc(OC(C)=O)cc2)c2ccccn2)cc1
  -11%[11.5 µM]	7%
88	COc1ccc(CNC(=O)CCS(=O)(=O)c2ccc3c(c2)CC(C)N3C(=O)C2CC2)cc1 (stereo not given)
  15%	36%[activator]
89	N#Cc1ccc(CN2CCN(C(=O)Cc3n[nH]c(=O)c4ccccc34)CC2)cc1
  -14%	-22%
90	O=C(NC1CCCCCC1)C1CCN(C(=O)N2CCOc3ccc(Cl)cc32)CC1
  23%	-6%

Brought forward from above: 5 entries; new compounds follow.
The line under a structure holds: StopGo FLuc	StopGo RLuc
86	COc1c(Cl)cc(/C=C(/C#N)c2cccc(F)c2)cc1Cl
  28%	6%
87	CC(=O)Oc1ccc(C(c2ccc(OC(C)=O)cc2)c2ccccn2)cc1
  -11%[11.5 µM]	7%
88	COc1ccc(CNC(=O)CCS(=O)(=O)c2ccc3c(c2)CC(C)N3C(=O)C2CC2)cc1 (stereo not given)
  15%	36%[activator]
89	N#Cc1ccc(CN2CCN(C(=O)Cc3n[nH]c(=O)c4ccccc34)CC2)cc1
  -14%	-22%
90	O=C(NC1CCCCCC1)C1CCN(C(=O)N2CCOc3ccc(Cl)cc32)CC1
  23%	-6%
91	O=C(/C=C/c1cc(Br)ccc1F)OC1CCCCC1=O (stereo not given)
  20%	4%
92	COc1ccccc1CNC(=O)C1CCN(C2=NS(=O)(=O)C(c3ccc(C)c(C)c3)=C2C)CC1
  -15%	7%
93	COc1ccc2c(c1)c1c(c(=O)n(-c3ccc(C)cc3)c(=O)n1CC(=O)NCc1ccc(C)cc1)n2C
  -11%	-6%
94	Cc1ccc(S(=O)(=O)Oc2ccc3c(C(F)(F)F)cc(=O)oc3c2)cc1
  3%	1%
95	COCCCNC(=O)c1ccc(-c2nc(CS(=O)(=O)c3ccc(C)cc3)c(C)o2)cc1
  25%&16%	31%&18%[activator]
96	N#Cc1cccc(NC(=O)c2ccccc2Oc2ccccc2)c1
  -9%	-14%[1.06 µM]
97	CCn1cc(C(=O)O)c(=O)c2ccc(C)nc21
  -21%	-13%
98	O=C(NC1CCCCC1)C1CCCN(C(=O)Cc2c[nH]c3ccccc23)C1 (stereo not given)
  7%	23%
99	CCCCS(=O)(=O)CC(O)CSc1nc(-c2ccc(C)cc2)cc(-c2ccccc2)c1C#N (stereo not given)
  9%	16%
100	NC(=S)N/N=C/c1cccc([N+](=O)[O-])c1
  -6%	-6%
101	O=C(Nc1nnc(C2CC2)s1)C1CC(c2cccc(F)c2)=NO1 (stereo not given)
  -1%	-8%
102	COc1cc(C#N)ccc1OCc1ccc(Cl)cc1Cl
  20%	12%
103	CCOC(=O)C1=C(CS(=O)(=O)c2ccc(F)cc2)NC(=O)NC1c1ccc(OCC)c(OC)c1 (stereo not given)
  1%	-2%
104	COc1cccc2cc(C(=O)NC3CCN(Cc4ccc(Cl)cc4)CC3)c(=O)oc12
  -1%	-3%
105	O=C(C(c1ccccc1)c1ccccc1)N(Cc1ccco1)C1CC1
  1%	9%
106	O=C(CCc1ccsc1)N(Cc1ccccn1)C1CC1
  4%	34%[activator]
107	N#Cc1ccccc1COC(=O)c1ccsc1
  -6%	-15%

Four records picked at random from the list so far, as already listed:
The line under a structure holds: StopGo FLuc	StopGo RLuc
107	N#Cc1ccccc1COC(=O)c1ccsc1
  -6%	-15%
96	N#Cc1cccc(NC(=O)c2ccccc2Oc2ccccc2)c1
  -9%	-14%[1.06 µM]
100	NC(=S)N/N=C/c1cccc([N+](=O)[O-])c1
  -6%	-6%
103	CCOC(=O)C1=C(CS(=O)(=O)c2ccc(F)cc2)NC(=O)NC1c1ccc(OCC)c(OC)c1 (stereo not given)
  1%	-2%
